# Screening results as filed in PubChem.
# NPYLR7 agonist = activates Aedes aegypti NPYLR7 receptor | hit rate 0.15% among 270,000 | HEK293T NPYLR7/Galpha15, GCaMP6s calcium fluorescence | activation, % at 10 µM; in the data active = activation above about 40%;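 also: 0% = vehicle and 100% = reference agonist at the receptor; some compounds past the cut are filed as inactive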
# NPYLR7 agonist max-min = second read-out of NPYLR7 agonist, no call of its own (marks repeat the call); activation, %; measured here: Max-Min RFU normalised activation; some inactives read as strong as hits;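 span of the calcium signal over five minutes; 0% = vehicle and 100% = native peptide agonist; compound fluorescence can raise it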
# Numbers without * were called inactive; & = joins results of further samples. A portion of the library; the hit share may differ from the screen's.
[1] CCOC(=O)c1c(NC(=O)C2COc3ccccc3O2)sc2c1CCN(CC)C2 (stereo not drawn)
[2] Cc1cccc(CNC(=O)Cn2c(=O)oc3cccnc32)c1
[3] O=c1c(-c2cccc(Br)c2)[n+]([O-])c2ccccc2n1O
[4] Cc1nc2ccc(C(=O)Nc3cccc(NS(C)(=O)=O)c3)cn2c1N(C)Cc1cccs1
[5] CC1CC(SCc2ccc(Cl)cc2)C(=O)O1 (stereo not drawn)
[6] CCCn1c(=O)c2c(nc3n2C(C)C(C)=NN3CC(=O)OCC)n(C)c1=O (stereo not drawn)
assay / entry	1	2	3	4	5	6
NPYLR7 agonist	0	-7	1	-5	5	-1
NPYLR7 agonist max-min	4	-6	-1	-11	4	11

[7] O=C1CCC2(C(=O)N3CCN(S(=O)(=O)c4ccccc4F)CC3)SCCN12 (stereo not drawn)
[8] CCCCC(CC)C(=O)Nc1nnc(SCc2ccccc2C)s1 (stereo not drawn)
[9] Cc1ccnc(-n2c(COCC(=O)O)nc3ccccc32)c1
[10] CC1(C(=O)NS(=O)(=O)c2cccc(F)c2)CCN1C(=O)c1ccc(C2CCCCC2)cc1 (stereo not drawn)
[11] COc1ccc(F)c(CN2CCCC3(CCN(c4nc(C)cc(C)n4)C3)C2=O)c1 (stereo not drawn)
[12] N#C/C(=C/c1ccccc1Cl)c1nc2c(s1)CCCC2
assay / entry	7	8	9	10	11	12
NPYLR7 agonist	1	26	9	6	11	-1
NPYLR7 agonist max-min	-2	30	5	4	4	-3

# Profiles as entered above.
# `O=C1CCC2(C(=O)N3CCN(S(=O)(=O)c4ccccc4F)CC3)SCCN12` (stereo not drawn) in the list: NPYLR7 agonist: 1; NPYLR7 agonist max-min: -2
# `COc1ccc(F)c(CN2CCCC3(CCN(c4nc(C)cc(C)n4)C3)C2=O)c1` (stereo not drawn) in the list: NPYLR7 agonist: 11; NPYLR7 agonist max-min: 4

# (continued)
[13] Cc1ccc(CC(=O)NOCC(=O)N(C(C)C)C(C)C)cc1
[14] O=C(C1CCCC1)N(Cc1cccc(Cl)c1)CC1CC(c2ccc3c(c2)OCO3)=NO1 (stereo not drawn)
[15] NC1CCCN(C(=O)CCSc2ccc3c(c2)OCCO3)CC1 (stereo not drawn)
[16] CCCSc1ncccc1C(=O)NCCc1ccc(F)cc1
[17] O=C(CCCSc1ccc(NC(=O)C2CC2)nn1)Nc1ccc(Cl)c(Cl)c1
[18] O=[N+]([O-])c1ccc(C=Nc2ccc(-c3nnc4n3CCCCC4)cc2)cc1
assay / entry	13	14	15	16	17	18
NPYLR7 agonist	0	24	17	-5	3	-6
NPYLR7 agonist max-min	56	25	16	-13	2	-9

[19] Cc1cccc(-c2nc3ccc(F)cc3n2C(C)C)c1N
[20] O=c1cc(CSCc2cc([N+](=O)[O-])cc3c2OCOC3)nc2sc3c(n12)CCCC3
[21] CC(C)Cn1c(N2CCN(Cc3c(F)cccc3Cl)CC2)nc2c1c(=O)[nH]c(=O)n2C
[22] COc1ccc(S(=O)(=O)Nc2ccc(N3CCC(C)CC3)c(C(=O)NCc3ccccc3)c2)cc1
[23] Cc1cc(C(=O)NCCn2nc(-c3ccccc3)n(C)c2=O)c(C)o1
[24] COc1cc(OC)c(NC(=O)COc2cc(C)nc(N3CCC(C)CC3)n2)cc1Cl
assay / entry	19	20	21	22	23	24
NPYLR7 agonist	11	9	6	2	4	-3
NPYLR7 agonist max-min	7	12	3	11	1	-7

[25] c1coc(-c2nc3ccccc3s2)c1
[26] CC(=O)c1ccc(NC(=O)CSc2nc(-c3ccc(F)cc3)nc3c2c(=O)n(C)c(=O)n3C)cc1
[27] CCC(Nc1ncc(S(N)(=O)=O)s1)c1cc(F)ccc1F (stereo not drawn)
[28] CCOC(=O)C(=O)N1CCN(c2nc3nccc(C(C)(C)C)n3n2)CC1
[29] CC(C)c1noc(C2CCN(C(=O)CCc3c[nH]c4ccccc34)CC2)n1
[30] NC(=O)c1ccccc1OCc1cccc2cccnc12
assay / entry	25	26	27	28	29	30
NPYLR7 agonist	-3	6	-3	0	7	5
NPYLR7 agonist max-min	-5	7	-3	-1	-7	2

[31] Cc1cc2nc(-c3cc(NC(=O)c4cccc(Br)c4)ccc3O)oc2cc1C
[32] CC(CC(=O)NCc1ccccc1N(C)C)NC(=O)OC(C)(C)C (stereo not drawn)
[33] COc1ccc2sc(C(=O)NCCc3ccccc3Cl)c(Cl)c2c1
[34] Nc1nc(NCc2cccc(-n3cccn3)c2)cc(N2CCOCC2)n1
[35] COc1ccccc1NC(=O)N1CCSC1c1cccc(C(F)(F)F)c1 (stereo not drawn)
[36] CSc1ncccc1C(=O)N1CCN(C(c2ccccc2)c2ccc(Br)cc2)CC1 (stereo not drawn)
assay / entry	31	32	33	34	35	36
NPYLR7 agonist	-3	5	-3	0	21	-5
NPYLR7 agonist max-min	-7	-9	-5	-2	23	-3

[37] CNC(=O)CCN(C)c1nc(C)cc(C2CCC2)n1
[38] O=C(OCc1cc(-c2ccc(Cl)cc2)on1)C1CC1
[39] COc1ccc(N2C(=O)CSC2c2ccccc2F)c(OC)c1 (stereo not drawn)
[40] Cc1cc(NCCOCCO)n2nc(C)c(-c3ccccc3)c2n1
[41] NCC[C@@H](O)C(=O)N[C@@H]1C[C@H](N)[C@@H](O[C@H]2O[C@H](CN)[C@@H](O)[C@H](O)[C@H]2O)[C@H](O)[C@H]1O[C@H]1O[C@H](CO)[C@@H](O)[C@H](N)C1O (stereo partly drawn)
[42] Cc1ccc(C)c(Cn2ccnc2CN(Cc2ccncc2)C(=O)NC(C)C)c1
assay / entry	37	38	39	40	41	42
NPYLR7 agonist	3	-4	-2	3	-9&-14	7
NPYLR7 agonist max-min	2	-5	-9	4	-2&-17	15

[43] CCC(C)c1ccc(NC(=O)c2ccc(OC)nc2OC)cc1 (stereo not drawn)
[44] O=C(c1cc2cc(Br)cc(Br)c2oc1=O)N1CCOCC1
[45] COCCOCC(=O)N1CCC(n2nc(-c3ccccc3)cc2-c2ccccc2)CC1
[46] O=C1NC(=O)C2(CCN(C(=O)C3CC3C3CCCCC3)C2)N1 (stereo not drawn)
[47] O=C(CN(CCCN1CCOCC1)C(=O)c1cccc(F)c1)N(Cc1ccccc1)Cc1ccco1
[48] COc1ccc(/C=C2N=C(/C=C/c3ccc(Cl)cc3Cl)OC\2=O)c(OC)c1
assay / entry	43	44	45	46	47	48
NPYLR7 agonist	0	-1	-5	5	-13	-4
NPYLR7 agonist max-min	8	-4	-5	9	-14	-4

# (list continues)
no.	SMILES	NPYLR7 agonist	NPYLR7 agonist max-min
49	Cn1cc(C(=O)Nc2cccc(F)c2)c2[nH]c(=O)n(-c3ccc(Cl)cc3)c(=O)c21	3	2
50	CC(=O)NCCC(=O)N(c1cccc(Cl)c1)c1nc2ccccc2s1	-1	-2
51	CCOc1ccc(-n2c(C)c(C)n3c4c(=O)n(CCN5CCOCC5)c(=O)n(C)c4nc23)cc1	15	5
52	C=c1cc(C)n(CC(=O)Nc2ccc(OC)cc2)c(=O)c1=C1N=C(c2ccc(OC)cc2)NO1	-3	-7
53	Cn1c(O)c(C=Nc2ccc([N+](=O)[O-])cc2)c(=O)n(C)c1=O	-2	-8
54	c1ccc(-c2cn3c(n2)SCC3)cc1	-4	-5
55	CC(C)Oc1ccc(C(O)=C2C(=O)C(=O)N(CCN3CCOCC3)C2c2ccc([N+](=O)[O-])cc2)cc1 (stereo not drawn)	-1	-1
56	COCC1(C(=O)NCc2ccc3c(c2)CC(C)(C)O3)CCC1	7	5
57	CC(=O)N(CC(=O)N(C)C)c1ccccc1	-28	-38
58	Cc1ccc(C)c(OS(=O)(=O)c2cc(C(N)=O)n(C)c2)c1C	6	4
59	CS(=O)(=O)c1ccc(C2=C(c3ccccc3)C(=O)OC2)cc1	-19&-11	-23&-16
60	Cc1cncn1CCc1nc2c3ccccc3nc(=S)n2[nH]1	2	-1
61	CCOc1cc(CN2CCCn3cccc3C2c2ccc(F)c(F)c2)ccc1O (stereo not drawn)	1	10
62	COC(=O)c1sc(-c2ccc(S(N)(=O)=O)cc2)nc1C	1	-2
63	COc1ccc(-n2ncc(Oc3ccc(Cl)c(C)c3)c(Nc3ccc(C(=O)O)cc3)c2=O)cc1	35	37
64	Cc1nccc(-c2cccc(NC(=O)C3CC=CCC3C(=O)N3CCc4ccccc4C3)c2)n1 (stereo not drawn)	-6	-17
65	O=C(c1cccnc1Cl)N1CCN(C2c3ccccc3CCc3ccccc32)CC1	-3	6
66	c1ccc(Nc2ccc3c(C4CC4)noc3n2)cc1	2	1
67	Nc1c(C(=O)Nc2ccc(Cl)cc2)c2ccccn2c1C(=O)c1ccc(Cl)cc1	-4	-10
68	Fc1cc(CNC2CCc3ccccc32)ccc1N1CCOCC1 (stereo not drawn)	8	9
69	COc1ccccc1-c1nnc(SCC(=O)c2ccc(F)cc2)o1	1	-2
70	COCCCN(CC(=O)N(CCc1c[nH]c2ccccc12)Cc1ccc(C(F)(F)F)cc1)C(=O)COC	20	14
71	CCc1cc(-c2ccc(OC)cc2C)ccc1NC(C)=O	9	5
72	CCN(CC)CCNC(=O)C1=C(C)C(=O)OC12CCCCC2	5	7

# Reformatted with each value named: 4 of the compounds above
72. CCN(CC)CCNC(=O)C1=C(C)C(=O)OC12CCCCC2
- NPYLR7 agonist = 5
- NPYLR7 agonist max-min = 7
69. COc1ccccc1-c1nnc(SCC(=O)c2ccc(F)cc2)o1
- NPYLR7 agonist = 1
- NPYLR7 agonist max-min = -2
67. Nc1c(C(=O)Nc2ccc(Cl)cc2)c2ccccn2c1C(=O)c1ccc(Cl)cc1
- NPYLR7 agonist = -4
- NPYLR7 agonist max-min = -10
71. CCc1cc(-c2ccc(OC)cc2C)ccc1NC(C)=O
- NPYLR7 agonist = 9
- NPYLR7 agonist max-min = 5

# (list continues)
no.	SMILES	NPYLR7 agonist	NPYLR7 agonist max-min
73	CCOC(=O)c1c(-c2ccccc2)oc2cc(Br)c(OCC(N)=O)cc12	-5	-8
74	COc1ccccc1Cn1c(C)c(C(=O)NCc2cccs2)sc1=O	2	4
75	CC(C)NC(=O)C1CCN(C2CCN(C(=O)CC3=CCCCC3)CC2)CC1	10	3
76	COCCN(Cc1nccn1Cc1ccc(Cl)c(Cl)c1)C(=O)c1cccc(F)c1	6	12
77	Cc1ccc(S(=O)(=O)NC(=O)C2(C)CCN2C(=O)Cc2ccccc2)cc1 (stereo not drawn)	3	2
78	COc1ccc(Br)cc1C1=N/C(=C\C(C)=C\c2ccccc2)C(=O)O1	0	-3
79	COc1cc(Cl)ccc1C(=O)Nc1n[nH]c(C(F)(F)F)n1	0	2
80	O=C1CN2CC(N1)c1ccccc1S2(=O)=O (stereo not drawn)	25	34
81	CC1CCCN(S(=O)(=O)c2ccc3c(c2)nc(SCc2ccc(OCC(=O)O)cc2)n3C2CCCC2)C1 (stereo not drawn)	15	9
82	CCc1nnc(NC(=O)C2CCC2)s1	2	7
83	Cc1ccccc1-c1nc(OCC(C)C)nn1-c1cccc(NC(=O)c2ccc(F)cc2)c1	21	24
84	CC(CC(=O)Nc1ccc(F)cc1)n1cncn1 (stereo not drawn)	5	6
85	CC(=O)Nc1ccc(S(=O)(=O)Nc2cccc3c2CCCC3)cc1	10	7
86	O=C(CSc1nc2ccccc2s1)Nc1ccccc1F	-8	-14
87	Cc1nc(Sc2cccn2C)c(C(F)(F)F)c(=O)[nH]1	1	-2
88	C=C(C)C(O)(C(=C)C)c1ccc(CN(Cc2ccc(C)o2)C2CC2)o1	-8	0
89	COc1ccc(NC(=O)C2(C)CCCN(C(C)C)C2)cc1OC (stereo not drawn)	-1	-2
90	CC1=NN(c2ccc(Cl)c(C(=O)O)c2)C(=O)/C1=C\c1ccc(Br)c([N+](=O)[O-])c1	4	-10
91	O=C(CSc1nnc(C2CC2)n1C1CC1)N(C1CCCC1)C1CCS(=O)(=O)C1 (stereo not drawn)	3	4
92	CNC(=O)NC(=O)Cn1nnc(-c2cc(F)ccc2Br)n1	10	7
93	CNc1nc(C(=O)N2CCCC(c3[nH]ncc3-c3ccc(C)cc3)C2)cs1 (stereo not drawn)	1	0
